# Screens (PubChem BioAssay)
# Mtb H37Rv: Mycobacterium tuberculosis H37Rv growth inhibition, cell based, confirmatory dose response (AID 1949) | most inactive calls were filed without a number and no value below 0 was filed | inhibition, % at 10 µg/mL; hits with a dose series show IC50 in µg/mL | 100,000 compounds, 1.6% hits;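 active = confirmed in a dose series; inconclusive = about 50% or more but not retested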;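 note: bacteria grown 7 days with compound before Alamar blue readout; 0% = untreated bacteria and 100% = reference antibiotic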
# * hit, by the source's call; i = inactive; ? = inconclusive. Not all compounds are listed; count on the stated rates, not on these rows.
canonical_smiles	Mtb H37Rv
COc1ccc(C2CC(c3cccs3)=NN2C(=O)c2ccccc2)cc1OC (centres undefined)	i
CCCN(CCC)C(=O)Cc1ccc(Br)cc1	i
CCc1cc(=O)oc2cc3occ(-c4ccc(Br)cc4)c3cc12	i
CCCCOc1ccc(C(=O)Nc2cccc(F)c2)cc1OC	1%
COc1cc([N+](=O)[O-])ccc1-c1cc2ccccc2oc1=O	3%
C=C(C)c1cccc(C(C)(C)NC(=O)NCCc2ccncc2)c1	i
NS(=O)(=O)c1ccc(NC(=S)NCCN2CCOCC2)cc1	i
CCCCOc1ccc(Cl)cc1CSc1nncn1N	8%
Cc1ccc(-c2nc3ncccc3o2)cc1NC(=S)NC(=O)/C=C/c1ccccc1	i
Cc1ccc(CN2C(=O)C(O)(CC(=O)c3ccco3)c3cc(Cl)ccc32)cc1 (centres undefined)	i
CC12CN(CC#N)CC(C)(CN(CC#N)C1)C2=O	i
Cc1cc(NS(=O)(=O)c2ccc(NS(=O)(=O)c3ccc(Br)cc3)cc2)no1	i
O=C(c1ccco1)N1N=C(c2ccc3nccnc3c2)CC1c1ccccc1 (centres undefined)	8%
O=C(CC1Nc2ccccc2NC1=O)Nc1ccccc1 (centres undefined)	i
CCOc1ccc(OCCOCCN2CCC(C)CC2)cc1	i
O=C(Nc1ccc(Cl)cc1)c1cc([N+](=O)[O-])ccc1O	18µg/mL*
CCc1cc(=O)oc2c(C)c(OCc3ccccc3Br)ccc12	i
O=C(Nc1nnc(CSCCOc2ccc(Cl)cc2)s1)c1ccccc1F	i
CCC(=O)c1ccc(OCCn2cncn2)cc1	i
CC(C)CC(=O)Nc1ccc2oc(-c3cccnc3)nc2c1	0%
O=C(Cc1ccc(F)cc1)N1CCc2ccccc21	1%
C=CSc1sc(Cl)c(N2CCCCC2)c1[N+](=O)[O-]	i
COc1cccc(N(CC(=O)Nc2cccc(C)c2C)S(=O)(=O)c2ccccc2)c1	i
Cc1ccc2oc(-c3ccc(C)c(NC(=O)c4cc5ccccc5o4)c3)nc2c1	i
COc1cc(-c2ncnn2-c2ccc(Cl)cc2)cc(OC)c1OC	i
Cn1cc(CNC(=S)Nc2cccc(Cl)c2Cl)cn1	i
S=C(NCCN(Cc1ccccc1)C(=S)Nc1ccccc1)Nc1ccccc1	i
COc1cc(C(=O)Nc2nccs2)ccc1OC(C)=O	i
CC(=O)c1cn(C(C)C(=O)NCc2ccco2)c2ccccc12 (centres undefined)	i
COc1ccccc1C(=O)n1cc(C)cn1	4%

# Next section
canonical_smiles	Mtb H37Rv
COc1cc(CNCc2ccc(OC)c(Br)c2)cc(OC)c1	i
COc1ccc(-c2cc(C(F)(F)F)nc(SCCC(=O)N3CCN4CCCC4C3)n2)cc1 (centres undefined)	i
CCOC(=O)C(O)(c1ccc(N(CC)C(=O)c2cccc(F)c2)cc1)C(F)(F)F (centres undefined)	3%
O=C(COc1ccc(S(=O)(=O)NCCc2ccccc2)cc1)NCc1cccnc1	i
O=C(N1CCN(C(=O)C23CC4CC(CC(C4)C2)C3)CC1)C12CC3CC(CC(C3)C1)C2	i
CC(C)(C)c1ccc(NC(=O)Nc2nnc(COc3ccc(Cl)cc3)s2)cc1	6%
CCOC(=O)Cc1[nH]nc2c1C(C1CC=CCC1)C(C#N)=C(N)O2 (centres undefined)	i
CCOc1cc(C#N)ccc1OCc1nc(-c2ccc(C)cc2)no1	i
O=C(CSCc1ccc(Cl)cc1)N1CCOCC1	i
Cn1c(SCC(=O)NCCOc2ccccc2)nnc1-c1ccc(C(C)(C)C)cc1	0%
CCOC(=O)c1c(NC(=O)c2cccs2)sc(C(=O)OC(C)C)c1C	i
c1ccc2c3nnc4n(c-3nc2c1)CCS4	i
Cc1cc(C)n(C(=O)C2(C)CC2(Cl)Cl)n1 (centres undefined)	i
CCn1c(CNC(=O)c2ccc(OC)cc2)nnc1SCC(=O)Nc1ccc(C(C)C)cc1	i
CCN(CC)C(=O)c1sc(NC(=O)c2ccc([N+](=O)[O-])cc2)c(C(=O)OC)c1C	i
CCOC(=O)c1c(NC(=O)c2c(F)c(F)c(F)c(F)c2F)sc2c1CCCCCC2	i
COc1cc(OC)cc(C(=O)N2CCN(C(=O)c3ccc(F)cc3)CC2)c1	i
Cc1ccc(O)c(CNc2ccccn2)c1	1%
C=CCNC(=O)C1CCCN(S(=O)(=O)c2ccc(Cl)cc2)C1 (centres undefined)	0%
O=C(CCc1ccccc1)Oc1ccc(Br)cc1Cl	i
CCc1ccc2c(c1)C(O)(CC(=O)c1ccc(OC)cc1)C(=O)N2 (centres undefined)	i
C=C(C)CSc1nc(C)cc(C)c1C#N	1%
N/C(Cc1ccc([N+](=O)[O-])cc1)=N\OC(=O)CC1CCCCC1	i
COC(=O)c1ccccc1NS(=O)(=O)c1ccc2c(c1)OCCO2	i
NC(=O)C1CC(=O)N(c2ccc(OCC(=O)Nc3cc(Cl)cc(Cl)c3)cc2)C1 (centres undefined)	2%
Cc1ccc(S(=O)(=O)c2nc(S(C)(=O)=O)sc2N2CCCCC2)cc1	i
CCCCOc1ccccc1NC(=O)C(C)C	i
Cc1cc(C)cc(NS(=O)(=O)c2ccc(NC(=O)C3CCCCC3)cc2)c1	i
CCN(CC)C(=O)c1ccc(NC(=O)c2ccc([N+](=O)[O-])cc2)cc1	i
Cc1[nH]n(-c2nc3ccccc3[nH]2)c(=O)c1C1OC(=O)c2ccccc21 (centres undefined)	i

# (cont.)
canonical_smiles	Mtb H37Rv
CC(C)C(=O)Nc1cccc(C(=O)N2CCCc3ccccc32)c1	i
CCn1c(SCC(=O)N2CCc3ccccc32)nnc1-c1ccc(N)cc1	i
CN(C)S(=O)(=O)N1CCN(C(=O)c2cccc(Br)c2)CC1	i
FC(F)(F)c1cccc(CSc2nnc(SCc3cccc(C(F)(F)F)c3)s2)c1	19%
COc1ccccc1Nc1nc(N)nc(CN2CCN(Cc3ccccc3)CC2)n1	i
CN1CCN(CC(O)COc2ccc(Cl)cc2Cl)CC1 (centres undefined)	i
Cn1c(CNC(=O)c2ccc(Cl)cc2)nnc1SCC(=O)c1ccc(Br)cc1	i
O=C(Nc1cccc(-c2nnc(-c3ccco3)o2)c1)c1ccccc1F	i
Cc1ccc(NC(=O)C(C)Sc2n[nH]c(C)n2)cc1 (centres undefined)	i
O=C(CS(=O)(=O)Cc1ccccc1)NCc1ccco1	i
CCCSc1nc2c3c(sc2c(=O)[nH]1)CC(C)(CC)OC3 (centres undefined)	i
O=C1CCC(C(=O)NCc2ccc(Cl)cc2)N1 (centres undefined)	2%
COCCn1c(CCC(=O)O)ccc1-c1ccccc1	i
O=C(NCc1ccc2c(c1)OCO2)c1nc2ccccc2s1	i
CC(C)n1c(SCC(=O)N2CCOCC2)nc2c1c(=O)n(C)c(=O)n2C	7%
Cc1nc2ccc(NC(=S)N3CCCC3)cc2nc1C	i
Cc1cc(=O)oc2cc(OCc3cc4c(cc3Cl)OCO4)ccc12	i
C=CCn1c(SCC(=O)Nc2cc(Cl)c(Cl)cc2Cl)nnc1-c1cccc(C)c1	i
COc1ccc(Cl)cc1NC(=O)C(C)Oc1ccccc1OC (centres undefined)	3%
CC1c2[nH]c3ccccc3c2CCN1C(=S)Nc1ccccc1 (centres undefined)	i
Cc1cc(C(=O)Nc2cccnc2)cs1	i
Cc1c(Cl)cccc1NC(=O)Nc1cccnc1	i
CCCCn1nnc(NC(=O)CSc2ccc(Cl)cc2)n1	5%
O=C(Cc1ccc(Br)cc1)Nc1ccc2c(c1)OCO2	i
CCCOc1ccc(C2C(C(=O)OCC)=CN(C)C=C2C(=O)OCC)cc1	1%
CC(C)(C)C1CCc2[nH]c3ccccc3c(=O)c2C1 (centres undefined)	?
CCn1c(CNC(=O)c2ccc(F)cc2)nnc1SCC(=O)N1CCN(c2ccccc2)CC1	i
COc1cc(C)c(S(=O)(=O)NCCCn2ccnc2)cc1C	i
O=C(NN1C(=O)C2C3C=CC(C3)C2C1=O)C(O)c1ccccc1 (centres undefined)	i
Cc1cc(Cl)ccc1OCCCC(=O)NCCCN1CCOCC1	i

# Not a retest: an excerpt of the list.
canonical_smiles	Mtb H37Rv
COc1ccc(C2CC(c3cccs3)=NN2C(=O)c2ccccc2)cc1OC (centres undefined)	i
CCCN(CCC)C(=O)Cc1ccc(Br)cc1	i
CCc1cc(=O)oc2cc3occ(-c4ccc(Br)cc4)c3cc12	i

# (next part)
canonical_smiles	Mtb H37Rv
CC(=O)c1c(C(C)=O)c(C)n(-c2ccc(C)cc2)c1C	2%
CCC(Sc1nnc2c(n1)[nH]c1ccccc12)C(=O)Nc1nc2ccccc2s1 (centres undefined)	12%
CCn1c(-c2ccc(Cl)cc2)n[nH]c1=S	3%
CCOc1cc(C(=O)Nc2ccc(NC(=O)C(C)C)c(OC)c2)cc(OCC)c1OCC	i
COc1ccccc1NC(=O)CSc1ncccn1	i
COc1ccc(NC(=O)CN(C)S(=O)(=O)c2ccc(C)cc2)c(OC)c1	i
CCOc1ccc(-c2nc(C#N)c(N3CCOCC3)o2)cc1	0%
CCN(CC)CCNC(=O)c1ccccn1	i
CN1CCN(C(=O)CSCc2ccc(Cl)cc2)CC1	i
CC1=C(C(=O)N2CCOCC2)C(c2ccc(F)cc2)C2=C(CC(C)(C)CC2=O)N1 (centres undefined)	i
COc1ccc(/C=C2/SC(=S)N(CCC(=O)NCCCN3CCOCC3)C2=O)cc1	i
O=[N+]([O-])c1ccc(O)c(Nc2ncnc3ccccc23)c1	1%
COc1ccc(S(=O)(=O)Nc2ccccc2F)c(Cl)c1Cl	i
Cn1c(=O)c2c(-c3ccccc3)n(Cc3ccccc3)cc2n(C)c1=O	12%
COc1cc(NS(=O)(=O)c2cc(Cl)ccc2OC)c(OC)cc1Cl	i
COc1ccccc1N1CCN(CC(O)COc2ccc3c(c2)CCC3)CC1 (centres undefined)	15%
COc1ccc(CN2CCC(N3CCCCCC3)CC2)cc1OCc1ccccc1	0%
CC(=O)c1cn(Cc2ccc(Br)cc2)c2ccccc12	i
O=C(O)CCNc1nc(Cc2ccccc2)nc2sc3c(c12)CCCC3	i
CC(C)Oc1cccc(C(=O)NC(=S)Nc2ccc3c(c2)C(=O)OC3)c1	i
Nc1nc(SCC(=O)N2CCC(c3noc4ccc(F)cc34)CC2)n[nH]1	4%
CCN(C(=O)c1ccc2nc(-c3ccccc3)c(-c3ccccc3)nc2c1)c1ccccc1	9%
CCOc1ccc(I)cc1C#N	i
O=C(OCc1ccc([N+](=O)[O-])cc1)c1ccc2ccccc2c1O	i
Cc1cccc(NC(=O)COc2ccc([N+](=O)[O-])c(C)c2)n1	i
Cc1cc(NC(=O)c2ccc(Cl)cc2)c(C(C)C)cc1O	i
COc1ccc(C(=O)N2CC3(C)CC2CC(C)(C)C3)cc1OC (centres undefined)	i
O=C(CSc1ccccn1)c1ccc(-c2ccccc2)cc1	3%
O=C(CSc1ccc(Cl)cc1)NC1CC2CCC1C2 (centres undefined)	i
COc1cccc(NC(=O)CN2C(=O)c3ccccc3S2(=O)=O)c1	i

# Reprinted at random: three compounds from above, in no set order.
canonical_smiles	Mtb H37Rv
COc1cc(NS(=O)(=O)c2cc(Cl)ccc2OC)c(OC)cc1Cl	i
COc1ccccc1N1CCN(CC(O)COc2ccc3c(c2)CCC3)CC1 (centres undefined)	15%
CC(C)Oc1cccc(C(=O)NC(=S)Nc2ccc3c(c2)C(=O)OC3)c1	i

# (listing goes on)
canonical_smiles	Mtb H37Rv
O=C(Nc1ccc2oc(-c3ccncc3)nc2c1)c1ccc2c(c1)OCCO2	i
O=C(Nc1ccc(Cl)cc1)c1c(O)c2ccccc2[nH]c1=O	i
COc1cc(NC(=S)NC(=O)c2ccccc2)ccc1-c1cc2ccccc2oc1=O	i
Cc1cc2c(cc1C)NC(CC(=O)Nc1ccc(OC(F)(F)C(F)Cl)cc1)C(=O)N2 (centres undefined)	i
N#Cc1ccccc1CN1C(=O)C(=O)c2ccccc21	4%
COc1cc(OC)cc(C(=O)Nc2ccc3oc(-c4cccc(Cl)c4Cl)nc3c2)c1	i
Cc1ccc(C(=O)Nc2nncs2)s1	i
CC(Oc1cccc(Cl)c1)C(=O)N1CCCN(C(=O)C(C)Oc2cccc(Cl)c2)CC1 (centres undefined)	i
Cc1ccc(CNC(=S)NNC(=O)CSCc2ccccc2C)cc1	3%
Cc1ccc(C)c(OCc2ccc([N+](=O)[O-])cc2)c1	3%
Cc1ccc(Cl)cc1NC(=O)c1ccc(C(=O)Nc2cc(Cl)ccc2C)cc1	2%
Cc1cccc(-n2c(SCC(=O)Nc3ccc(C)cc3Br)nnc2-c2ccncc2)c1	i
S=C(Nc1ccccc1)N1CCN(C2CCCCC2)CC1	i
CC1(C(=O)Nc2cccc3ncccc23)Cc2ccccc2C(=O)O1 (centres undefined)	i
COc1ccc(CNC(=O)c2cccc(C(=O)NCc3ccc(OC)cc3)n2)cc1	i
Cc1cccc(-c2noc(-c3ccccc3Cl)n2)c1	i
Cc1ccc(NC(=O)c2ccc(OC(=O)c3cccs3)cc2)cc1	32%
O=C(Oc1cccc(-c2nnco2)c1)N1CCCCC1	7%

# Compounds above that contain a COOH group:
canonical_smiles	Mtb H37Rv
COCCn1c(CCC(=O)O)ccc1-c1ccccc1	i
O=C(O)CCNc1nc(Cc2ccccc2)nc2sc3c(c12)CCCC3	i

# Molecules above with a CF3 group, in the order listed:
canonical_smiles	Mtb H37Rv
COc1ccc(-c2cc(C(F)(F)F)nc(SCCC(=O)N3CCN4CCCC4C3)n2)cc1 (centres undefined)	i
CCOC(=O)C(O)(c1ccc(N(CC)C(=O)c2cccc(F)c2)cc1)C(F)(F)F (centres undefined)	3%
FC(F)(F)c1cccc(CSc2nnc(SCc3cccc(C(F)(F)F)c3)s2)c1	19%
